# LASV entry inh: blocks Lassa virus binding to or entry into cells; Lassa virus pseudotype entry inhibition, cell reporter; control for the full effect not named in the record; Potency, µM (titrated, usually from 37.9 µM), for inactives: top-dose activity change, negative = inhibition, most hits filed as inhibitors; 1.2% of 300,000 active; AID 540256; active means well fitted inhibition curve with a large enough effect; inconclusive means small, poorly fitted or top-dose-only effect, or effect the other way; inactive means flat fitted curve, though single readings scatter; tested in HEK293 cells; further: on the % scale 0 is the no-effect control and ±100 the full control effect; nearly all actives have a fitted effect of over 50% in size; luciferase read-out
# Marburg entry inh: inhibitors of Marburg virus binding or cell entry | Marburg virus pseudotyped entry inhibition, cell reporter; control for the full effect not named in the record; about a third of the inactives were read at about 46 µM | AID 540276 | 1.8% of 300,000 active | Potency, µM (highest dose often 37.8 µM), for inactives: at the highest dose activity change, negative = inhibition, usual class: inhibitors; active = well fitted inhibition curve with a large enough effect; inconclusive = small, poorly fitted or top-dose-only effect, or effect the other way; inactive = flat fitted curve, though single readings scatter; tested in HEK293 cells; about a fifth of its hits are not listed in these tables; further: on the % scale 0 is the no-effect control and ±100 the full control effect; luciferase read-out
# Cruzain Triton: inhibitors of Trypanosoma cruzi cruzain with detergent; AID 1478; Potency, µM, without a hit: max response, negative = inhibition, usual class: inhibitors; 0.43% of 200,000 active; P25779; purified cruzain, Z-FR-AMC fluorescence, 0.01% Triton;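 further: plate controls were neutral wells for no effect and buffer without enzyme for full effect; nearly all actives have a fitted effect of over 40% in size; top concentration of the series not given in the record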
# Target sequence (P25779 123-467 limits assumed): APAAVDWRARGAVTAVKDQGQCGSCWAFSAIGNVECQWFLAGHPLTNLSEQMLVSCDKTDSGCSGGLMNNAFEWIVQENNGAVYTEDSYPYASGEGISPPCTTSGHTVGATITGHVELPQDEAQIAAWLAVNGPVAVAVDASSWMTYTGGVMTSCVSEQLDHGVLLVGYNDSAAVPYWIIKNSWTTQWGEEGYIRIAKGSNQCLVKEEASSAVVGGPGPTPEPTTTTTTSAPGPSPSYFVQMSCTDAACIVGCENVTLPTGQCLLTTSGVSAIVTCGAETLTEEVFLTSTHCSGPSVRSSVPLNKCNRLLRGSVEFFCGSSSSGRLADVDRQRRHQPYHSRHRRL
#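 15 min RT preincubation of 1.5 nM cruzain with compound, then 2 uM Z-FR-AMC added; kinetic AMC fluorescence, 60 s delta. Triton X-100 0.01%, pH 5.5.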
# NS1 function inh: blocks influenza NS1 protein function | S. cerevisiae slowed by influenza A NS1, growth recovery by OD600 | Potency, µM (titrated, usually from 46.1 µM), for the others: at the top dose activity, positive = more growth | 0.4% of 270,000 active | AID 2326; active means well fitted rising curve with a large enough effect; inconclusive means small, poorly fitted or top-dose-only effect; inactive means no such curve, though single readings can be large or run the other way; further: nearly all actives have a fitted effect of over 50% in size
#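 Compounds were scored for reversing the slow growth caused by influenza A NS1 in S. cerevisiae, measured by optical density at 600 nm. Assay medium contained 2% galactose at pH 6.0; NS1-free yeast of the same strain were the positive control.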
# Cruzain noTriton: cruzain (T. cruzi) inhibition without detergent; Potency, µM, for the others: max response, negative = inhibition, actives largely listed as inhibitors; P25779; purified cruzain, Z-FR-AMC fluorescence, no detergent; 2.3% of 200,000 active;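 further: plate controls were enzyme without inhibitor for no effect and buffer without enzyme for full effect; nearly all actives have a fitted effect of over 40% in size; top concentration of the series not given in the record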
#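 Detergent-free condition (0.00005% Triton X-100) in acetate buffer pH 5.5 with DTT. 1.5 nM enzyme and compound were pre-mixed 15 min, then 2 uM Z-FR-AMC substrate added; reaction progress from fluorescence change between first and third reads (60 s).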
# SARS PLP yeast: SARS-CoV PLP inhibition in yeast; Potency, µM (doses to about 32.9 µM), for the others: top-dose activity, positive = growth rescue; 0.19% of 330,000 active; S. cerevisiae expressing SARS-CoV PLpro, growth rescue; control for the full effect not named in the record; active means well fitted rising curve with a large enough effect; inconclusive means small, poorly fitted or top-dose-only effect; inactive means no such curve, though single readings can be large or run the other way; further: 0% is about no effect; nearly all actives have a fitted effect of over 55% in size; growth read by luminescence after 48 h
# RE007 growth inh: less growth of the S. pombe RE007 Vpr strain | S. pombe RE007 Vpr strain, BacTiter-Glo ATP luminescence, 24 h; control for the full effect not named in the record | Potency, µM (top dose mostly 92.2 µM), inactives show at the top dose activity change, negative = less growth | 0.21% of 360,000 active | AID 651644; active = well fitted falling curve with a large enough effect; inconclusive = small, poorly fitted or top-dose-only effect; inactive = no such curve, though single readings can be large or run the other way;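 further: on the % scale 0 is the no-effect control and ±100 the full control effect; nearly all actives have a fitted effect of over 50% in size; the assay follows cell death caused by Vpr and the record does not say whether a fall means rescue or toxicity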
#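 Fission yeast RE007 carrying one integrated HIV-1 vpr copy, seeded at OD 0.01 in PMG+AL medium with 23 nL pinned compound. Grown 24 h at 30 degrees; viability read by BacTiter-Glo luminescence after 5 min.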
# StopGo reporter: FMDV 2A StopGo reporter, luciferase signal; human cells with a luciferase reporter of 2A StopGo recoding; control for the full effect not named in the record; Potency, µM (doses to about 57.9 µM), without a hit: top-dose signal change, negative = less light; 1.2% of 410,000 active; AID 1159524; active = well fitted falling curve with a large enough effect; inconclusive = small, poorly fitted or top-dose-only effect; inactive = no such curve, though single readings can be large or run the other way; tested in HEK293T cells; further: on the % scale 0 is the no-effect control and ±100 the full control effect; nearly all actives have a fitted effect of over 45% in size; luciferase light after 4 h
# * = called active by the depositor; u = inconclusive; x = no result given; [ ] = dose if it differs, or a comment. Unless noted, the call rests on the fitted dose curve; in most records, active means well fitted curve in the direction sought with a large enough effect; inconclusive means small, poorly fitted or top-dose-only effect, or another doubt; inactive means no such curve, though single readings can be large; an effect the other way counts as inactive or inconclusive. Potency means the concentration at half of the fitted maximal effect.
# Sample of the layout, ten compounds:
# Results follow in this order: LASV entry inh, StopGo reporter, RE007 growth inh, Cruzain noTriton, Cruzain Triton, NS1 function inh, SARS PLP yeast, Marburg entry inh
1) COc1cc(C)c(/C=C(\C#N)C(=O)Nc2ccc(C)cc2)cc1C(C)C
 : 0%, -3%, 5%, 3%, -7.3%, 0%, u, 16%
2) Cc1ccc(-c2noc(C3CCCN(C(=O)c4ccc(C(C)(C)C)cc4)C3)n2)o1 (stereo not given)
 : x, u, 2%, x, x, 8%, -6%, -30%[46.1 µM]
3) COc1ccc(NC(=O)C/C(C)=N/NC(=O)c2ccncc2)c([N+](=O)[O-])c1
 : 6%[46.1 µM], -3%, -28%, x, x, x, 2%, u
4) Cc1cccc(-n2cnc3c(sc4nc(N5CCOCC5)c5c(c43)CCCC5)c2=O)c1
 : u, u, 8%, x, x, 7%, 0%, u
5) COc1ccc(OCCCC(=O)OCC(=O)Nc2c(C)nn(-c3ccccc3)c2C)cc1
 : -10%, -8%, 31%, x, x, x, x, u
6) Cc1ccc(CSc2ncnc3c2cnn3Cc2ccccc2)cc1
 : -24%, 7%, -9%, -9%, -0.8%, -5%, -17%, 6%
7) C=CCn1c(C)nc2ccccc2c1=O
 : x, -17%, 9%, x, x, 2%, -1%, x
8) C(=N\Nc1nc(N2CCOCC2)nc(N2CCOCC2)n1)/c1ccncc1
 : -3%, -8%, -4%, -3%, -5.7%, 6%, -8%, u
9) CCOC(=O)CCN(C(=O)Nc1ccccc1)C1CCCCC1
 : u, 65%[activator], -22%, x, x, x, x, 6%
10) COc1ccc(OCC(=O)NNC(=O)Nc2cccc(Cl)c2)cc1
 : 3%, 4%, -6%, x, x, 1%, 9%, 0%

# The whole of this part, repeating the preview:
# Results follow in this order: LASV entry inh, StopGo reporter, RE007 growth inh, Cruzain noTriton, Cruzain Triton, NS1 function inh, SARS PLP yeast, Marburg entry inh
1) COc1cc(C)c(/C=C(\C#N)C(=O)Nc2ccc(C)cc2)cc1C(C)C
 : 0%, -3%, 5%, 3%, -7.3%, 0%, u, 16%
2) Cc1ccc(-c2noc(C3CCCN(C(=O)c4ccc(C(C)(C)C)cc4)C3)n2)o1 (stereo not given)
 : x, u, 2%, x, x, 8%, -6%, -30%[46.1 µM]
3) COc1ccc(NC(=O)C/C(C)=N/NC(=O)c2ccncc2)c([N+](=O)[O-])c1
 : 6%[46.1 µM], -3%, -28%, x, x, x, 2%, u
4) Cc1cccc(-n2cnc3c(sc4nc(N5CCOCC5)c5c(c43)CCCC5)c2=O)c1
 : u, u, 8%, x, x, 7%, 0%, u
5) COc1ccc(OCCCC(=O)OCC(=O)Nc2c(C)nn(-c3ccccc3)c2C)cc1
 : -10%, -8%, 31%, x, x, x, x, u
6) Cc1ccc(CSc2ncnc3c2cnn3Cc2ccccc2)cc1
 : -24%, 7%, -9%, -9%, -0.8%, -5%, -17%, 6%
7) C=CCn1c(C)nc2ccccc2c1=O
 : x, -17%, 9%, x, x, 2%, -1%, x
8) C(=N\Nc1nc(N2CCOCC2)nc(N2CCOCC2)n1)/c1ccncc1
 : -3%, -8%, -4%, -3%, -5.7%, 6%, -8%, u
9) CCOC(=O)CCN(C(=O)Nc1ccccc1)C1CCCCC1
 : u, 65%[activator], -22%, x, x, x, x, 6%
10) COc1ccc(OCC(=O)NNC(=O)Nc2cccc(Cl)c2)cc1
 : 3%, 4%, -6%, x, x, 1%, 9%, 0%
11) O=C(CN1C(=O)NC2(CCCCC2)C1=O)Nc1cc(C(F)(F)F)ccc1N1CCCCC1
 : -5%, -3%, -1%, x, x, x, -1%, u
12) CN(C)/N=C/c1ccc(OC(=O)c2cccc([N+](=O)[O-])c2)cc1
 : 2%, 0%, 13%, x, x, -7%, 1%, 6%[46.1 µM]
13) CCc1cc2c(=O)c(-c3ccc(F)cc3)c(C)oc2cc1OCC(=O)O
 : -4%, -7%, -13%, x, x, -3%, -4%, 25%[46.1 µM]
14) Cc1cccc(S(=O)(=O)NC2CCCCCCC2)c1
 : -18%, 29%, -5%, x, x, -43%, -3%, u
15) O=C(c1sc2cc([N+](=O)[O-])ccc2c1Cl)N1CCCCC1
 : 24%, -24%, 7%, -13%, -5.1%, 4%, 8%, u
16) COc1cc(/C=C/C(=O)OC(C)C(=O)NC2CCCCC2C)cc(Cl)c1OC (stereo not given)
 : -1%, -17%, -3%, x, x, x, 2%, -24%
17) O=C(c1ccco1)N1CCN(C(=O)C2CC(=O)N(c3ccccc3)C2)CC1 (stereo not given)
 : 14%, -10%, 0%, x, x, 0%, 1%, 18%
18) Cn1c(=O)c2c(nc(N3CCOCC3)n2CCCNC2=NCCCCC2)n(C)c1=O
 : 1%, -19%, -4%[3.69 µM], -10%, -0.4%, -14%, -11%, -1%
19) CC(=O)c1cccc(NC(=O)CCS(=O)(=O)c2cccc3nsnc23)c1
 : 16%, 21%, -6%, -15%, -6.1%, -4%, 6%, 3%
20) CCOC(=O)C(C)(C)NS(=O)(=O)c1ccc(Cl)c([N+](=O)[O-])c1
 : 11%, -8%, -15%, -8%, -1.3%, -26%, -18%, u

# Following part.
# Results follow in this order: LASV entry inh, StopGo reporter, RE007 growth inh, Cruzain noTriton, Cruzain Triton, NS1 function inh, SARS PLP yeast, Marburg entry inh
21) CC(C)Oc1ccc(C(=O)NC(=S)N2CCOCC2)cc1
 : 13%, 28%, 1%, 16%, -2.0%, -11%, 26%, 3%
22) COc1ccc(NC(=O)CN2C(=O)COc3ccc(S(=O)(=O)Nc4ccccc4)cc32)cc1OC
 : 18%[46.1 µM], 21%, x, -11%, -2.4%, x, x, x
23) CCCc1nc2ccccc2c(C(=O)OC2CCOC2=O)c1CC (stereo not given)
 : 3%, 3%, -9%, 6%, -7.9%, -13%, -10%, 3%
24) COc1ccc(-c2noc(CN(C(=O)C(C)Oc3ccc(C)cc3)C(C)C)n2)cc1 (stereo not given)
 : -22%[46.1 µM], 0%, x, u, -6.6%, x, x, u
25) CCSc1nnc(-c2cccc(S(=O)(=O)N(C)C)c2)n1-c1cc(OC)ccc1OC
 : u, -12%, 0%, u, 1.1%, -2%, 1%, -8%
26) CCOc1ccc(CN2CCN(Cc3cc4c(cc3Cl)OCO4)CC2CCO)cc1 (stereo not given)
 : u, -29%, -1%, x, x, 3%, 0%, u
27) N#Cc1c(-c2ccc(Cl)cc2Cl)nc2n(c1=O)CCS2
 : -2%, 13%, 5%, -7%, -8.5%, 13%, -12%, 12%
28) CCOc1ccc(C(c2c(O)cc(C)n(CCOC)c2=O)N2CCN(c3ccccc3F)CC2)cc1 (stereo not given)
 : -26%[46.1 µM], -26%, x, u, 0.5%, x, x, x
29) CCOc1ccccc1NC(=O)c1cnc(NS(=O)(=O)c2ccccc2)nc1
 : 4%[46.1 µM], -12%, -4%, x, x, 2%, -1%, 3%[46.1 µM]
30) COc1ccc(S(=O)CC(=O)Nc2ccccc2Cl)cc1 (stereo not given)
 : 0%, 9%, -8%, x, x, -4%, 0%, 5%[46.1 µM]
31) Cc1ccccc1-c1nc(C(=O)NCC2CCCO2)cc2c1[nH]c1ccccc12 (stereo not given)
 : x, u, 3%, x, x, -34%, -13%, x
32) CCOc1ccccc1OCCOc1cccc(C(F)(F)F)c1
 : -1%, -14%, -13%, 0%, -11%, -3%, -3%, -2%[46.1 µM]
33) O=C(CC1C(=O)NCCN1Cc1ccc(-c2ccccc2)cc1)NC1CCC1 (stereo not given)
 : x, -18%, 6%, x, x, -7%, 19%, x
34) Nc1cccc2c1C(=O)N(C(=O)/C=C/c1cccc(F)c1)C2=O
 : u, u, u, x, x, x, -2%, u
35) CC(=O)NC1C(OC(=O)/C=C/c2ccccc2)OC(COC(C)=O)C(OC(C)=O)C1OC(C)=O (stereo not given)
 : x, -7%, -2%, x, x, -12%, -3%, x
36) O=C(O)c1cccc(NC(=O)c2ccc(CN3C(=O)c4ccccc4C3=O)cc2)c1
 : 12%, 4%, 1%, x, x, 1%, -4%, -1%
37) CC(C)(C)C(=O)Cn1c(=N)n(Cc2ccccc2)c2ccccc21
 : 3%, -24%, u, 5%, -3.5%, -37%, -51%, u
38) CSc1nc(C)c(CCOC(=O)c2cccc(C)c2)c(=O)[nH]1
 : -2%, 17%, 0%, -21%, 1.1%, 13%, 10%, -4%
39) CC[n+]1cc(-c2ccccc2)nc(N2CCOCC2)n1
 : 5%, x, u, 1%, -0.9%, -15%, 11%, u
40) Cc1cc(C)c2oc(C(=O)N3CCN(C)CC3)cc(=O)c2c1
 : -1%[46.1 µM], -7%, 0%, x, x, 1%, -2%, -13%[46.1 µM]

# The listing continues.
# Results follow in this order: LASV entry inh, StopGo reporter, RE007 growth inh, Cruzain noTriton, Cruzain Triton, NS1 function inh, SARS PLP yeast, Marburg entry inh
41) COc1ccccc1NC(=O)CSc1nnc(CNC(=O)c2cccs2)o1
 : 10%[46.1 µM], 19%, -1%, x, x, 2%, -1%, 19%[46.1 µM]
42) CCOC(=O)C1=C(Cn2ccc(C(F)(F)F)n2)NC(=O)NC1c1ccc2c(c1)OCO2 (stereo not given)
 : 0%, u, -12%, -3%, -7.4%, 8%, 1%, u
43) CCOC(=O)CC1=CC(C)(CC(=O)OCC)C(C#N)(C#N)C(N)=C1C#N (stereo not given)
 : -6%, x, 1%, 4%, -7.5%, -13%, -2%, 0%
44) Cc1nn(-c2ccc(F)cc2)c(Cl)c1/C=C(\CC(=O)O)c1nc2ccccc2s1
 : -4%, -26%, -24%, u, -6.6%, -73%, -27%, 21%
45) NC(=O)[C@H]1CC2(CC(c3cccc(NC(=O)c4ccccc4)c3)=NO2)CN1C(=O)[C@H]1CCC(=O)N1 (stereo not given in full)
 : x, -15%, -7%, -2%, 6.1%, 13%, -16%, -1%
46) Cc1[nH]n(-c2ccccc2)c(=O)c1/C=N/c1ccccn1
 : 10%, 11%, u, -5%, -3.0%, -4%, -16%, 8%[46.1 µM]
47) Cc1cc2oc(=O)cc(CN3CCN(S(=O)(=O)c4cccs4)CC3)c2cc1C(C)C
 : -29%, u, 2%, u, -5.1%, 4%, 17%, u
48) CCOC(=O)c1[nH]c(C)c(C(=O)N(CC)CC)c1C
 : x, -1%, 7%, 0%, 0.1%, 2%, 4%, x
